# VACV mCherry inh: vaccinia inhibition (mCherry reporter). Vaccinia virus mCherry reporter infection, fluorescence; about a quarter of the inactives have no number. Potency, µM (doses to about 36.5 µM), inactives show at the top dose activity change, negative = inhibition, most hits filed as inhibitors. 310,000 tested, 0.63% active. AID 720579; active = well fitted inhibition curve with a large enough effect; inconclusive = small, poorly fitted or top-dose-only effect; inactive = no such curve, though single readings can be large or run the other way; tested in A549 cells; note: nearly all actives have a fitted effect of over 35% in size; inactives centre near -10
# Vaccinia Venus: inhibitors of vaccinia virus (Venus reporter); Vaccinia virus Venus reporter expression, fluorescence; Potency, µM (series often up to 36.5 µM), inactives show top-dose activity change, negative = inhibition, actives largely listed as inhibitors; 330,000 tested, 0.46% active; active means well fitted inhibition curve with a large enough effect; inconclusive means small, poorly fitted or top-dose-only effect; inactive means no such curve, though single readings can be large or run the other way; tested in A549 cells; note: nearly all actives have a fitted effect of over 30% in size; inactives centre near -10
# The depositor's hits bear a star; i = inactive; ? = inconclusive; . = not tested or not shown; & = joins results of further samples; [ ] = dose if it differs, or a comment. % is set by controls: 0 for no effect and ±100 for the full control effect; potency is the fitted concentration of half-maximal effect.
# Values run as follows: Vaccinia Venus	VACV mCherry inh
- O=c1c2ccccc2nnn1CSc1nc2sc3c(c2c(=O)n1CC1CCCO1)CCC3 (stereo not drawn)
 : -17%	-5%
- COc1ccc(S(=O)(=O)N2CCN(CC(=O)Nc3cc(Cl)ccc3Cl)CC2)cc1
 : -2%	-3%
- COc1ccc(SC[C@H](C)CN2CC[C@H](NC(=O)OCc3ccccc3)CCC2=O)cc1
 : -27%&-19%	-9%
- O=c1[nH]c(=S)n(-c2ccc(Br)cc2)c2ncccc12
 : 5%	i
- Cc1ccc(NC(=O)c2ccc(Cl)c(S(=O)(=O)Nc3c(C)n(C)n(-c4ccccc4)c3=O)c2)cc1Cl
 : -28%	?
- COC(=O)c1nc2n(n1)C(c1cc(OC)ccc1OC)C(C(=O)Nc1ccc(C)cc1C)=C(C)N2 (stereo not drawn)
 : -2%	0%
- CC(C)CNC(=O)CC(=O)NN=C1CCCC1
 : -6%	i
- Cc1ccc(Nc2cc(C)nc3nc(C)nn23)cc1
 : -17%	-16%
- O=C(c1cc(S(=O)(=O)N2CCOCC2)c(Cl)cc1Cl)N1CCCC1
 : -10%	-17%
- CCC(C)(C)n1nnnc1C(c1cccc(C#N)c1)N1CCN(c2cccc(C)c2C)CC1 (stereo not drawn)
 : -7%	-7%
- COc1ccc(Br)cc1CN1CCN(C(=O)c2ccco2)CC1
 : -1%	-14%
- Cc1cc(C)c2cc(C(=O)Nc3ccc4c(c3)OCO4)[nH]c2c1
 : 0%	?
- CC1CC(=O)Nc2cc([N+](=O)[O-])ccc2N1 (stereo not drawn)
 : -6%	-10%
- COc1ccccc1CCNC(=O)C(=O)NCC1CCCN1S(=O)(=O)c1ccccc1 (stereo not drawn)
 : -23%	?
- COc1ccccc1-c1nn(CCC(=O)Nc2ccc(C)cc2)c2nc(C)cc(C)c12
 : -10%	-15%
- CCN1C(=O)[C@H]2[C@@H](c3ccc(SC4CCCCC4)cc3)N3CCCC[C@@]3(C(=O)OC)[C@H]2C1=O
 : -23%	-28%
- CCCCC(=O)NC(=S)Nc1ccc(NC(=O)C(C)C)c(OC)c1
 : ?	?
- Cc1ccc(OCC(=O)Oc2ccc(C)c(C)c2)cc1
 : -14%	-14%
- Cc1cccc(NC(=O)CSc2nnc(C)c(C)n2)c1
 : 2%	8%
- Cn1cc(CN2CCC(n3nccc3NC(=O)c3ccccc3Cl)CC2)cn1
 : -10%	i

# Values run as follows: Vaccinia Venus	VACV mCherry inh
- COc1ccc2c(c1)sc(N)[n+]2Cc1cc(C)cc2cccnc12
 : ?	?
- O=C(NC1CCCC1)C(c1ccccc1)N(C(=O)c1csnn1)C1CCCC1 (stereo not drawn)
 : -5%	5%
- O=C(Nc1cccc(Cl)c1)N1CCSc2ccccc21
 : -2%	-12%
- Cc1cc(C(=O)NC(Cc2ccccc2)C(=O)O)c(C)o1 (stereo not drawn)
 : 5%	-11%
- CCOc1ccccc1NC(=O)Cn1c(=O)n(Cc2ccccc2)c(=O)c2c1c1cc(C)ccc1n2C
 : -6%	-8%
- CC1CCCN(CCOCCOc2ccccc2-c2ccccc2)C1 (stereo not drawn)
 : -26%	?
- COc1cc(NC(=O)c2cc(Cl)ccc2Cl)ccc1-c1cc2ccccc2oc1=O
 : -9%	-14%
- Cc1cc(C(F)(F)F)c2sc(N)nc2n1
 : -11%	.
- COc1ccc(S(=O)(=O)NC(CC(=O)N2CCC3(CC2)OCCO3)c2ccco2)cc1 (stereo not drawn)
 : -17%	.
- Cn1cc(CNC(=O)/C=C/c2ccc(Cl)cc2)cn1
 : -10%	-13%
- COc1ccc(/C=N/Nc2nonc2N)cc1
 : -7%	-17%
- CC(=O)Cc1ccc(OC(C)C)cc1
 : -1%	-19%
- O=C1NC[C@H](c2ccccc2)N(CCc2cccc(F)c2)C1=O
 : -4%	i
- Cc1cccnc1NC(=S)NC(=O)/C=C/c1ccccc1
 : -5%	-1%
- CC(=O)c1cccc(NC(=O)c2cc(-c3ccco3)nc3ccccc23)c1
 : 11%	-10%
- CCC(C)(CC(=O)Nc1nccs1)c1ccccc1 (stereo not drawn)
 : -16%	-15%
- OC1CCCCC1Sc1nc2ccccc2s1 (stereo not drawn)
 : -11%	-18%
- [N-]=[N+]=NC[C@H](Cc1ccccc1)N1CC[C@@H](NC(=O)OCc2ccccc2)CCC1=O
 : -13%	i
- NC1=NC(=O)/C(=C\c2ccc(-c3ccc(Cl)cc3)o2)S1
 : -7%	i
- Cc1ccc(NC(=O)CCNS(=O)(=O)c2cccc3nsnc23)cc1
 : 8%&-7%	-8%&-2%

# Values run as follows: Vaccinia Venus	VACV mCherry inh
- COc1cccc(-c2cnc(C(O)c3ccc(F)cc3)[nH]2)c1 (stereo not drawn)
 : -4%	i
- CN(c1ccc(C(=O)Nc2cccnc2)cc1)S(C)(=O)=O
 : -6%	.
- NC(=O)c1ccc(Oc2ccc3c(c2)CCC3)c([N+](=O)[O-])c1
 : -9%	-7%
- O=C(NCCOc1nc(N2CCOCC2)nc(N2CCOCC2)n1)Nc1ccccc1
 : -18%	-12%
- COc1ccccc1NC(=O)CSc1ncc2c(n1)-c1cc(Cl)ccc1N(C)S2(=O)=O
 : -19%	-28%
- O=C(Nc1ccccc1Cl)OCC#CCOC(=O)Nc1ccccc1Cl
 : -18%	i
- CC(NC(=O)c1ccccc1Cl)C1COc2ccccc2O1 (stereo not drawn)
 : 65%[activator]	48%[activator]
- Cc1ccc(Oc2nnc(-c3ccccc3)cc2C#N)cc1
 : -20%	.
- CCOCCCNc1nc2ccccc2n2c(CC)nnc12
 : -8%	-18%
- COc1ccc(C=NCCCN2CCOCC2)cc1
 : -2%	.
- Cn1c(O)c(N=NC(=S)Nc2ccccc2F)c2cc(S(=O)(=O)N3CCOCC3)ccc21
 : -2%	-9%
- O=C(CCCn1c(=O)[nH]c2cc(Cl)ccc2c1=O)N1CCN(c2ccc([N+](=O)[O-])cc2)CC1
 : 1%	6%
- COc1ccccc1C(=O)Nc1cccc2c1CCCC2
 : -20%	-10%
- Cc1cc(NC(=O)CS(=O)c2cn(Cc3cccc(Cl)c3)c3ccccc23)no1 (stereo not drawn)
 : -15%	-6%
- COc1ccc(C2Nc3ccccc3C(=O)N2Cc2ccco2)cc1COc1ccccc1F (stereo not drawn)
 : -13%	.
- CC(C)C1C(=O)N(Cc2cn(CCC3OCCO3)nn2)CCS(=O)(=O)N1Cc1ccc(-c2ccc(F)cc2Cl)cc1 (stereo not drawn)
 : -21%	-16%
- Cc1cccc(N2CC(C(=O)Nc3ccc(N4CCOCC4)cc3)CC2=O)c1C (stereo not drawn)
 : -10%	-1%
- CCC(=O)N=c1sc2c(OC)ccc(OC)c2n1C
 : -4%	-6%
- CCOC(=O)C1=C(C)NC(SC)=NC1c1ccc(OC)cc1 (stereo not drawn)
 : -11%	-17%
- CCCC1CC(C)(C(=O)CSc2n[nH]c(-c3ccccc3)n2)OC1=O (stereo not drawn)
 : -19%	-9%

# Values run as follows: Vaccinia Venus	VACV mCherry inh
- COc1ccc(C(=O)Oc2cc(-c3ccc(OC)c(OC)c3)cc(=O)c3c(C)oc(C)c23)cc1
 : 9%	-7%
- Cc1nn(C)c2c(=O)c(=O)c2n(C)[nH]1
 : 3%	-10%
- CSC1=NCCN1S(=O)(=O)c1ccc(C)cc1
 : -7%	-1%
- CCOC(=O)c1c(C)[nH]c(C)c1C(=O)COC(=O)/C=C/c1cccc(C(F)(F)F)c1
 : -28%	-11%
- COc1cccc(/C=N/NC(=O)CN(C)S(=O)(=O)c2ccccc2)c1OC
 : -11%	?
- CC(=O)Nc1ccc(Oc2nc(-c3cccnc3)nc3sc4c(c23)CCCC4)cc1
 : -14%	i
- O=C(NC1CCCCC1)c1cccc2c1C(=O)c1ccc(N3CCC(Cc4ccccc4)CC3)cc1S2(=O)=O
 : -7%	-3%
- Cc1cccc(NS(=O)(=O)c2ccc(Cl)c(C(=O)Nc3ccccc3C)c2)c1
 : -7%	-9%
- CCc1nonc1NC(=O)c1oc2cc(C)c(Cl)cc2c1C
 : -14%	-1%
- CCc1nn2c(=O)cc(COc3cccc(NC(=O)c4ccco4)c3)nc2s1
 : -12%[7.34 µM]	i[7.34 µM]
- CCCCCNC(=O)C(c1ccnc2ccccc12)n1c(=O)c(-c2ccccc2)nc2ccccc21 (stereo not drawn)
 : 1%	-1%
- O=C(N/C(=C/c1ccccc1Cl)C(=O)N1CCCC1)c1ccccc1
 : -21%	-11%
- O=C1NCCN1C(=O)C12CC3CC(CC(C3)C1)C2
 : -16%	-24%
- Cc1cccc(N(C)S(=O)(=O)c2nnc(NC(=O)c3cccs3)s2)c1
 : 2%	8%
- c1ccc(-c2nc(C3CCCCC3)c3sccc3n2)cc1
 : -1%	i
- CN(C)S(=O)(=O)c1ccc(N2CCCC2)c(C(=O)NCC2COc3ccccc3O2)c1 (stereo not drawn)
 : -11%	i
- Cc1cc2nc(SCCN3CCCC3)[nH]c2cc1C
 : -10%	-6%
- COc1ccc(CCN2CC(C(=O)NCCc3ncccc3C)CCC2=O)cc1 (stereo not drawn)
 : -6%	-26%
- CCOC(=O)C(O)C1CCc2c([nH]c3ccc(C)cc23)C1=O (stereo not drawn)
 : ?	-16%
- CCn1c(CC(=O)Nc2ccccc2C)nnc1SCC(=O)Nc1nncs1
 : -7%	-21%

# Values run as follows: Vaccinia Venus	VACV mCherry inh
- CC(C)C[C@@H](CO)N(Cc1ccccc1)S(=O)(=O)N(Cc1ccccc1)[C@@H](CO)CC(C)C
 : 22µM*	?
- O=C(c1ccc2snnc2c1)N1CCN(c2ccccc2)CC1
 : -7%	-5%
- COc1ccc(CC2(CO)CCN(Cc3cccc(OC)c3OC)CC2)cc1
 : -13%	-2%
- COc1cc(NS(=O)(=O)c2c(C)nc3sc(C)c(C)n3c2=O)cc(OC)c1
 : -13%	-12%
- CCCn1c2ccccc2c2cnn(CC(=O)NCCc3ccc(S(N)(=O)=O)cc3)c(=O)c21
 : 6%	0%
- Cc1ccc(F)cc1-c1cc(C(=O)NCc2cc(C(F)(F)F)cc(C(F)(F)F)c2)[nH]n1
 : 4%	28%
- CCOc1ccc(N(CC(=O)NC2CCCC2)C(=O)c2ccc(C)s2)cc1
 : -3%	-17%
- NC(=O)C1CCN(C(=O)c2cc(-c3ccccc3Cl)nc3ccccc23)CC1
 : -6%	-13%
- Cn1ccc2cc(NC(=O)Nc3cccnc3)ccc21
 : -12%	-17%
- CC(C)(S)[C@H](N)C(=O)O
 : -17%	-1%
- C=CCn1cc(C(C)=O)c(=O)[nH]c1=O
 : -3%	-14%
- O=C(CCCn1c(=S)[nH]c2ccsc2c1=O)Nc1ccc2c(c1)OCCO2
 : 1%	-21%
- COc1ccc(-n2nnnc2C(c2ccccc2)N2CCC3(CC2)C(=O)NCN3c2ccccc2)cc1 (stereo not drawn)
 : -14%	25%
- O=C(COC(=O)c1ccc(Br)cc1)NCc1ccc(F)cc1
 : -6%	0%
- Cn1c(=O)c2cc(NC(=S)NC3CCCCC3)ccc2n1Cc1ccc(F)cc1
 : -5%	-1%
- CC[C@@H](NCCCn1cnc2c(SC)ncnc21)c1ccccc1
 : 2%	-7%
- COc1cc(/C=N/NC(=O)CCn2cnc(-c3ccccc3)c2-c2ccccc2)ccc1O
 : ?	8.9µM*
- COC(=O)c1cc(C(=O)OC)cc(-n2c(C)cc(C(=O)CC#N)c2C)c1
 : -6%	-14%
- CCOC(=O)NC1(C(F)(F)F)NC(=O)N(C2CCCCC2)C1=O (stereo not drawn)
 : -12%	i
- COc1ccc(-n2c(=S)[nH]c3[nH]ncc3c2=O)cc1
 : 2%	i

# Values run as follows: Vaccinia Venus	VACV mCherry inh
- CCc1ccc(CN(C)C(=O)c2cc(S(=O)(=O)N3CCOCC3)ccc2N2CCCC2)cc1
 : -27%	-6%
- CS(=O)(=O)N1Cc2cnnn2-c2ccccc2C1C#N (stereo not drawn)
 : 0%	-9%
- CNS(=O)(=O)c1cccc(C(=O)NCC2(N3CCCCC3)CCCCC2)c1
 : 2%	-9%
- Cc1c2c(nc3c(C)cccc13)OC(C)C2 (stereo not drawn)
 : 1%	-10%
- CCCC(c1nnnn1C(C)(C)C)N1CCN(Cc2ccccc2OC)CC1 (stereo not drawn)
 : -7%	-19%
- S=c1nc[nH]c2c1sc1nc(-c3ccccc3)c3c(c12)CCCC3
 : ?	14µM*
- CC(=O)Nc1ccc(S(=O)(=O)NCC(=O)OCC(=O)NCCc2ccccc2)cc1
 : -10%	-7%
- Cc1cc(=O)oc2cc(OCC(=O)NC3(C#N)CCCCC3)ccc12
 : -7%	-9%
- CN(N)c1nc2ccccc2nc1C(F)(F)F
 : -1%	11%
- O=C(CSc1cn(CC(=O)N2CCCCC2)c2ccccc12)Nc1ccccc1
 : -13%	-8%
- Cc1cccc(C(=O)NCc2nnc(SCC(=O)Nc3nncs3)n2C)c1
 : -13%	-10%
- CCOc1ccc(NC(=O)c2csc3c2CCCC3)cc1
 : -13%	i
- c1ccc2c(c1)nc(-c1ccncc1)n1nnnc21
 : -3%	-10%
- COc1cc(CNC(=O)c2cnn(-c3ncc4c(n3)-c3ccccc3CC4)c2C)cc(OC)c1OC
 : -28%	?
- COC(=O)CSC1=C(C#N)C(=O)NC2(CCCCC2)S1
 : -4%	i
- CCOC(=O)CN1C(=O)CN(c2ccc(C)c(C)c2)C1=O
 : -3%	-5%
- CC(C)Cn1c(N)c(C(=O)COC(=O)c2cc(F)cc(F)c2)c(=O)n(C)c1=O
 : -13%	-14%

# A second format for some results above:
CNS(=O)(=O)c1cccc(C(=O)NCC2(N3CCCCC3)CCCCC2)c1
- Vaccinia Venus: 2%
- VACV mCherry inh: -9%

CN(N)c1nc2ccccc2nc1C(F)(F)F
- Vaccinia Venus: -1%
- VACV mCherry inh: 11%

# Assay outcomes: PubChem, National Center for Advancing Translational Sciences (NCATS)
